D2 ag: activates the human D2 dopamine receptor; P14416; DiscoveRx PathHunter D2 beta-arrestin, luminescence, 90 min; 100% = 57 uM dopamine signal; activation, % (no concentration beside the values); hit rate 0.084% among 360,000; in the data active = activation above about 40%; inconclusive = about 15% to 40%; inactive = below about 15%; note: compound concentration not given in the record; the text of the record calls up to 30% inactive
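DiscoveRx PathHunter D2 beta-arrestin cells (2,100/well) attached overnight, then compound-stimulated 90 min at 37 C in HBSS/10 mM HEPES/0.1% Tween-20 buffer; beta-galactosidase complementation read by luminescence after 1 h at ambient temperature. Dopamine 57 uM final (EC100) as control.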
TRPML1 blocker: inhibitors of human TRPML1 channel; Q9GZU1; activity change, negative = inhibition, % (concentration not given with the values); TRPML1-inducible cells, Ca2+ dye fluorescence, FDSS; hits give low values; inhibition of EC80 agonist-evoked calcium signal; hit rate 0.02% among 390,000; in the data active means activity change below about -50%; inconclusive means about -30% to -50%; inactive means above about -30%;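 note: stimulus is agonist 54-4 at its EC80 concentration; % is set by controls: 0 for no effect and ±100 for the full control effect; compound concentration not given in the record; the text of the record puts the active cut at -80%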
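Calcium fluorescence in TRPML1-DL cells induced overnight with Tet: a 110 s read after compound pin addition, then a 110 s antagonist read after challenge with 54-4 at 4 uM final (EC80).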
Six1-Eya2 blk: Six1/Eya2 interaction inhibition. activity change, % (concentration not given with the values). AlphaScreen GST-Six1/His-Eya2 binding, biochemical; hits give low values; control for the full effect not named in the record. Q15475+O00167. hit rate 0.56% among 360,000; in the data active = activity change below about -65%; inconclusive = about -30% to -65%; inactive = above about -30%; note: % is set by controls: 0 for no effect and ±100 for the full control effect
Target sequence (O00167 whole entry, looked up): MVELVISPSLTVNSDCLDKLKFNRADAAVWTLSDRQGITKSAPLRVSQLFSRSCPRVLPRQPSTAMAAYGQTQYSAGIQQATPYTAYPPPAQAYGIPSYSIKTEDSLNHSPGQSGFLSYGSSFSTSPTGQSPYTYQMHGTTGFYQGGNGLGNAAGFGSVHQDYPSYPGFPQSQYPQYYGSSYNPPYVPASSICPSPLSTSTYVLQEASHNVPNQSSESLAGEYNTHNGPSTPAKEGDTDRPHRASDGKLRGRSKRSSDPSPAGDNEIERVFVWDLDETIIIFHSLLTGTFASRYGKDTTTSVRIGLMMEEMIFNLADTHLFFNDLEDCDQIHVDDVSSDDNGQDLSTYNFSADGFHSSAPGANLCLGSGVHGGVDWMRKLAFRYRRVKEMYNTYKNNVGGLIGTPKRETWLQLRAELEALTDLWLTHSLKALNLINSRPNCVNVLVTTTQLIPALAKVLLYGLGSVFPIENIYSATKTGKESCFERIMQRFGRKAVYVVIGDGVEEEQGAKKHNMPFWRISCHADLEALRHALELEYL
Target sequence (Q15475 whole entry, looked up): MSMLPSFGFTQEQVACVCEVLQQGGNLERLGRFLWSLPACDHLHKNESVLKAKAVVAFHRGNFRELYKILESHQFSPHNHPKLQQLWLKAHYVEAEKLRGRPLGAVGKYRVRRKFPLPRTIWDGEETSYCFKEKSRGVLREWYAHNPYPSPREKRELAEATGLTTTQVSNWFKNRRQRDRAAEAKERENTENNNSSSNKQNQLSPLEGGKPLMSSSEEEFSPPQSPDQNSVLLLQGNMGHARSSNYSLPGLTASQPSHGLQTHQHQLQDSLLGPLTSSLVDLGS
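AlphaScreen with GST-Six1 and His-Eya2 (5X mix: 250 nM and 500 nM), glutathione donor and nickel acceptor beads; buffer 50 mM Tris pH 8.0, 300 mM NaCl, 1 mM TCEP; 1 h at 37 C in the dark.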
TRPML1 ag: human mucolipin-1 channel agonism; AID 624414; Q9GZU1; TRPML1-expressing cells, Ca2+ dye fluorescence, FDSS; host cell line not named in the record; reference of the full effect not given here; activation, % (no concentration beside the values); hit rate 0.12% among 410,000; in the data active = activation above about 50%; inconclusive = about 30% to 50%; inactive = below about 30%; note: 0% is about no effect; the text of the record puts the active cut at 80%
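Tetracycline-induced TRPML1-DL cells are seeded and incubated overnight before loading with a no-wash Ca2+ dye and quencher. Agonist activity is taken from the 110 s fluorescence read following compound pin-transfer on an FDSS, before EC80 54-4 challenge.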
PINK1 expr mod: PINK1 expression modulation. hit rate 0.2% among 410,000. Potency, µM (top dose mostly 76.6 µM), for the others: at the top dose activation (PINK1 increase), usual class: activators. PINK1 immunofluorescence, high-content cytometry, 24 h; active = well fitted activation curve with a large enough effect; inconclusive = small, poorly fitted or top-dose-only effect; inactive = flat fitted curve, though single readings scatter; cell line not stated here;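 note: potency is the fitted concentration of half-maximal effect; % of control where 0% means no effect; nearly all actives have a fitted effect of over 65% in size; a mitochondrial uncoupler was the plate control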
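Cells are seeded, rested 12 hours, then given compound at five concentrations or DMSO for 24 hours. After fixation, blocking and antibody staining, PINK1 amount and mitochondrial localization are scored; CCCP serves as control.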
D2 potentiator: positive allosteric modulators of human D2 dopamine receptor. DiscoveRx D2 beta-arrestin cells, luminescence, 90 min; 100% = 57 uM dopamine signal. potentiation, % (test concentration not listed). hit rate 0.23% among 360,000; active = potentiation of 50% or more; inconclusive = 30% to 50%; inactive = 30% or less;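 note: compound concentration not given in the record; tested on top of an EC20 dose of dopamine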
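PathHunter D2 cells, attached overnight at 37 deg C, received compound in DMSO plus dopamine at EC20 (50 nM final) for 90 min at 37 deg C. Beta-arrestin recruitment was read as luminescence after 1 h with detection reagent at ambient temperature.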
Active calls of the source: *; ? = inconclusive; nt = not tested or not shown; [ ] = another dose, or the depositor's remark.

SMILES	D2 ag	TRPML1 blocker	Six1-Eya2 blk	TRPML1 ag	PINK1 expr mod	D2 potentiator
Cc1ccc(N(CC(O)CN2CCCCC2)S(=O)(=O)c2ccc(C)cc2)cc1 (configuration not stated)	-4.2	-10	6	0.7	-0.2%	-33
CCCOc1ccc(/C=C/C(=O)NCc2ccccc2)cc1	-0.6	8	10	1.7	-2.4%	-30
CCOc1ccc(S(=O)(=O)N(C)c2ccc(OCC(=O)OCc3c(C)noc3C)cc2)cc1	0.8	11	0	-0.5	-1.9%	0
COc1ccc(Cl)cc1/C=C1/C(=O)ON=C1C	-2.7	50	6	0.1	6.5%	-3
Cc1ccnc(NCc2c(O)ccc3ccccc23)c1	3.2	nt	9	nt	0.0%	-7
O=C(CN1CCN(c2ccccn2)CC1)Nc1ccc2ccccc2c1	2.7	-2	-22	-0.2	1.7%	-13
Fc1ccc(C2=NNC(=NCc3ccccc3)SC2)cc1F	-16	5	-13	0.8	21%	-36
c1ccc(-c2cn3cccnc3n2)cc1	0.2	-3	5	-0.3	nt	10
COc1ccc(/C=N\NC(=O)c2ccc([N+](=O)[O-])c(C)c2)cc1COc1ccccc1C(N)=O	0.3	3	?	0.4	4.4%	9
CC(C)C(=O)Nc1c(C(=O)N2CCN(c3ncccn3)CC2)oc2ccccc12	-3.5	12	1	-0.7	0.8%	-1

Shown with two lines to a compound: part of the list above
Screens in order: D2 ag, TRPML1 blocker, Six1-Eya2 blk, TRPML1 ag, PINK1 expr mod, D2 potentiator
CCOc1ccc(S(=O)(=O)N(C)c2ccc(OCC(=O)OCc3c(C)noc3C)cc2)cc1
    0.8, 11, 0, -0.5, -1.9%, 0
COc1ccc(Cl)cc1/C=C1/C(=O)ON=C1C
    -2.7, 50, 6, 0.1, 6.5%, -3

New compounds follow
SMILES	D2 ag	TRPML1 blocker	Six1-Eya2 blk	TRPML1 ag	PINK1 expr mod	D2 potentiator
O=C1CCCN1C(=O)CSc1nnnn1-c1cccc(F)c1	-3.5	-5	10	-0.5	1.4%	-5
Cc1cccc2cc(CN(C(=O)c3cccc([N+](=O)[O-])c3)C(C)C)c(=O)[nH]c12	-4.0	7	-1	0.8	-0.2%	-8
Cc1ccc(NC(=S)NCCCN2CCOCC2)cc1	-3.8	-4	7	-0.4	-1.9%	-21
Cc1ccccc1OCCC(=O)N(CC(C)C)c1c(N)n(Cc2ccccc2)c(=O)[nH]c1=O	-0.5	-2	5	0.3	-0.2%	-3
CN(C)C(CNS(=O)(=O)c1cc([N+](=O)[O-])ccc1Cl)c1ccco1 (configuration not stated)	5.2	0	-6	0.0	-0.5%	7
COc1ccc(Br)cc1CNC(=O)CN1C(=O)CSc2ccc(S(=O)(=O)N3CCOCC3)cc21	nt	5	nt	0.1	2.4%	nt
COc1ccccc1NS(=O)(=O)c1ccc2[nH]c(=O)[nH]c2c1	0.1	-6	-3	0.0	-1.1%	-6
CCOC(=O)CC(=O)CSc1ccc2nnc(-c3ccc(F)cc3)n2n1	2.0	2	-9	-0.2	-4.4%[38.3 µM]	-16
CC(=O)N1c2ccc(S(=O)(=O)N3CCC(C(=O)NC4CCC(C)CC4)CC3)cc2CC1C (configuration not stated)	0.7	35	1	-0.9	1.0%	-12
COc1ccccc1-c1sc2ccccc2c1-c1ccc2c(c1)OCO2	-3.2	8	0	-0.4	2.5%	0

Another view of some results above:
COc1ccc(Cl)cc1/C=C1/C(=O)ON=C1C
  D2 ag: -2.7
  TRPML1 blocker: 50
  Six1-Eya2 blk: 6
  TRPML1 ag: 0.1
  PINK1 expr mod: 6.5%
  D2 potentiator: -3
Cc1ccnc(NCc2c(O)ccc3ccccc23)c1
  D2 ag: 3.2
  TRPML1 blocker: nt
  Six1-Eya2 blk: 9
  TRPML1 ag: nt
  PINK1 expr mod: 0.0%
  D2 potentiator: -7
O=C(CN1CCN(c2ccccn2)CC1)Nc1ccc2ccccc2c1
  D2 ag: 2.7
  TRPML1 blocker: -2
  Six1-Eya2 blk: -22
  TRPML1 ag: -0.2
  PINK1 expr mod: 1.7%
  D2 potentiator: -13
Fc1ccc(C2=NNC(=NCc3ccccc3)SC2)cc1F
  D2 ag: -16
  TRPML1 blocker: 5
  Six1-Eya2 blk: -13
  TRPML1 ag: 0.8
  PINK1 expr mod: 21%
  D2 potentiator: -36

(cont.)
SMILES	D2 ag	TRPML1 blocker	Six1-Eya2 blk	TRPML1 ag	PINK1 expr mod	D2 potentiator
COc1cc(NC(=O)COc2cc(O)c3c(c2)OC(C)(C)CC3=O)cc(OC)c1	5.3	nt	-9	nt	1.2%	-28
O=C(O)C1CC=CCC1C(=O)Nc1ccccc1Cl (configuration not stated)	1.4	6	6	-0.6	3.5%	3
O=Cc1c(NCc2ccccc2F)c2ccccc2[nH]c1=O	11	-3	-5	-0.7	-0.5%	0
COc1cc(C2NC(=O)NC(C)=C2C(=O)OCC2CCCO2)ccc1O (configuration not stated)	2.7	-21	16	0.5	4.3%[38.3 µM]	-4
O=C(N/N=C/C(Cl)=C/c1ccc([N+](=O)[O-])cc1)C(=O)Nc1cccc(C(=O)O)c1	15	nt	?	nt	3.8%	2
Cc1cccc(C(=O)Nc2cccc(C(=O)N/N=C/c3cccc(C)n3)c2)c1	1.6	23	-30	1.9	4.4%	-2
Brc1ccc(N=Nc2ccc3ccccc3n2)cc1	-5.0	-20	-9	0.8	0.7%	-18
COc1ccc(NC(=O)CCC(=O)Nc2cc(OC)c(NC(=O)c3cccs3)cc2OC)cc1	2.4	9	-79*	0.6	2.2%	-3
O=C(NCc1cccc(Cl)c1)c1ccc2nc[nH]c2c1	-1.3	18	16	1.3	-0.8%	-14
Cc1c(Cl)c([N+](=O)[O-])nn1Cc1ccc(C(=O)Nc2ccc(Cl)cn2)o1	-8.5	-16	?	?	0.9%	-16
CC(=O)c1cccc(S(=O)(=O)NC2CC2)c1	-0.2	11	2	4.3	3.2%	3
CC(NCC1(N2CCOCC2)CCCCC1)C(=O)N1CCc2ccccc21 (configuration not stated)	-1.2	-7	4	-0.7	-1.6%	-20
O=C(COc1ccc(Br)cc1)NCCNC(=O)c1ccccn1	-3.1	3	0	-0.5	-2.1%	-7
Cc1ccc2nc(-c3ccc(NC(=O)CN4CCN(c5ccccn5)CC4)cc3)sc2c1	-4.1	18	2	0.1	8.1%	-3
CC(=O)Nc1ccc(C(=O)Nc2ccc(S(=O)(=O)N3CCCCC3)cc2)cc1	-0.5	2	-5	-0.3	2.0%	-2
CC1=NN2C(=N)/C(=C\c3cc(C)n(Cc4ccccc4)c3C)C(=O)N=C2S1	1.8	-9	-13	0.6	2.5%	-5
CCC(C)NS(=O)(=O)c1ccc(NC(=O)CCC2CCCCC2)cc1 (configuration not stated)	-1.0	-5	-3	0.6	-26%[38.3 µM]	16
CC(C)(C)c1nc(SCC(=O)Nc2nc3c(s2)CCCC3)c2ccccc2n1	-2.1	-8	1	?	13%[38.3 µM]	-4
COc1ccc(C(=O)N2CC3(CC(c4cccc(NC(=O)COc5ccc(Cl)cc5)c4)=NO3)C[C@@H]2C(N)=O)cc1 (some centres not stated)	-5.8	0	-12	-0.3	0.7%	-2
CCNC(=S)N(CCc1cccc(C)c1)Cc1cc2cc(OC)c(OC)cc2[nH]c1=O	0.3	-8	-12	0.4	-2.5%	-27
CCc1ccc2c(c1)C(C)=CC(C)(C)N2	2.0	-1	-26	0.5	0.2%	4
CCn1c(NC(=O)c2ccc(COc3ccc(C)cc3[N+](=O)[O-])o2)nc2ccccc21	-2.6	1	-1	0.5	?	-10
CN(Cc1ccc(F)cc1)Cc1nc(CCc2ccccc2)no1	-1.2	9	6	1.7	1.3%	-2
O=C(Nc1cccc(S(=O)(=O)N2CCCC2)c1)c1cccnc1	-9.2	19	-7	1.4	-0.3%	-17
CCOc1ccc(N(CC(=O)NCc2ccc(Cl)cc2)S(=O)(=O)c2ccccc2)cc1	-5.1	5	5	-0.2	1.9%	-15
CCc1ccc(NC(=O)Cn2c(=O)n(CC3CCCO3)c(=O)c3cc(OC)c(OC)cc32)cc1 (configuration not stated)	nt	8	nt	0.2	3.2%	nt
COc1ccc(N2CCN(C(=O)CCS(=O)(=O)c3cc(Br)cc4c3N(C(=O)C3CC3)CC4)CC2)cc1	nt	27	nt	-0.3	0.3%	nt
Nn1c(Cc2cccc3ccccc23)nnc1SCCOc1ccc(F)cc1	-1.3	43	-6	5.2	1.6%	-17
O=C(O)CC1S/C(=N/N=C/C=C/c2ccccc2[N+](=O)[O-])NC1=O (configuration not stated)	-5.2	-10	-14	-0.3	3.8%	-19
Cc1nc([N+](=O)[O-])cn1CC(=O)c1ccc(Cl)cc1	-1.2	29	3	0.0	7.7%	-17
Cc1ccc(C(=O)N/N=C\c2ccc(OC(=O)c3cccs3)cc2)cn1	-3.4	-9	-11	-0.1	8.9%	-1
CN1CCN(Cc2c(O)ccc3c(-c4ccccc4)cc(=O)oc23)CC1	-4.3	-4	3	0.7	1.5%[38.3 µM]	-19
COc1ccc(C)cc1NC(=O)CSc1nc(=O)[nH]c2c1CCCC2	nt	-10	nt	-0.4	0.1%	nt
COc1cccc(C(=O)Nc2nnc(C3CCCO3)s2)c1 (configuration not stated)	0.1	7	6	-0.2	0.5%	-21
O=C(NC1CCN(Cc2ccccc2)CC1)C(NS(=O)(=O)c1cccc2nsnc12)c1ccccc1 (configuration not stated)	-0.4	10	-7	0.6	-1.1%	-11
O=C(NCc1ccccc1)C1=C[C@@H](c2csc3ccccc23)C[C@@H](OCc2ccc(CO)cc2)O1	0.7	-2	2	-0.7	-0.4%	-9
Cn1c(SCC(=O)Nc2ccccc2F)nc2c([nH]c3ccccc32)c1=O	nt	5	nt	1.2	3.7%	nt
Nc1c(C(=O)O)nnn1Cc1ccccc1	3.9	-8	5	-1.2	-2.3%	-4
COc1ccc(-c2csc3nc(-c4ccc(F)cc4)oc(=O)c23)cc1	nt	3	nt	-0.4	-0.3%	nt
CCC(=O)N1CCCc2cc(S(=O)(=O)Nc3ccc(C)c(C)c3)ccc21	nt	-15	nt	-1.2	1.2%	nt
O=C(COc1ccc(Cl)cc1)N/N=C/CCc1ccccc1	-1.6	8	3	1.9	-1.1%[38.3 µM]	-7
COc1ccc(C)cc1NC(=O)CSc1nc(=O)n(Cc2ccco2)c2c1CCC2	nt	51	nt	1.0	-0.6%	nt
C#CCOc1ccc(Br)cc1C(c1c(C)[nH][nH]c1=O)c1c(C)[nH][nH]c1=O	-0.7	nt	4	nt	1.7%	13
COc1cccc(-n2c(N)c(C(=O)Nc3c(C)n(C)n(-c4ccccc4)c3=O)c3nc4ccccc4nc32)c1	3.6	15	4	0.4	-0.7%	-1
CC(C)COc1ccc(-c2nnc(-c3ccco3)o2)cc1	-0.8	10	5	2.1	2.1%	-11
CCOc1ccc(NC(=O)c2ccc(NC(=S)NC3CCCCC3)cc2)cc1	3.4	9	-2	-1.0	2.1%	2
Cn1c(SCc2nc3ccccc3[nH]2)nnc1-c1cccnc1	1.8	-15	-3	-0.2	3.7%	4
CN1CCN(C(=O)c2ccc(-c3ccccc3)cc2)CC1	-1.3	2	0	0.1	-0.8%	-8
O=C(Nc1nnc([C@H]2C[C@H](O)[C@@H](CO)O2)s1)c1ccccc1F	2.6	nt	3	0.4	1.0%	-1
Cc1cccc(-n2ncc3c2CCCC3NC(=O)c2ccc[n+]([O-])c2)c1C (configuration not stated)	-1.1	-4	2	-0.6	1.2%	-13

Assay outcomes from PubChem BioAssay.

Compounds were not picked by outcome; 1% or so of the library scored in one or more.
